Source: PubChem
D2 ag – activates the human D2 dopamine receptor. DiscoveRx PathHunter D2 beta-arrestin, luminescence, 90 min; 100% = 57 uM dopamine signal. activation, % (no concentration beside the values). 0.084% of 360,000 active; in the data active = activation above about 40%; inconclusive = about 15% to 40%; inactive = below about 15%; further: compound concentration not given in the record; the text of the record calls up to 30% inactive
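Agonist mode: compounds alone added to overnight-plated D2 PathHunter cells for 90 min at 37 C, with 57 uM final dopamine (EC100) defining full response. Beta-arrestin recruitment detected by chemiluminescent reagent, read after 1 h at ambient temperature.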
D2 PAM – human D2 receptor positive allosteric modulation. P14416. DiscoveRx D2 beta-arrestin cells, luminescence, 90 min; 100% = 57 uM dopamine signal. potentiation, % (test concentration not listed). 0.23% of 360,000 active. AID 624464; active = potentiation of 50% or more; inconclusive = 30% to 50%; inactive = 30% or less;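 further: compound concentration not given in the record; tested on top of an EC20 dose of dopamine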
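PathHunter beta-arrestin assay in DiscoveRx D2 cells. Compounds were added with an EC20 of dopamine (50 nM final) for 90 min at 37 deg C. Luminescence was read 1 h after detection reagent, with 57 uM dopamine as the EC100 control.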
Six1-Eya2 blk – inhibitors of human Six1/Eya2 interaction. AlphaScreen GST-Six1/His-Eya2 binding, biochemical; hits give low values; control for the full effect not named in the record. activity change, % (concentration not given with the values). 0.56% of 360,000 active. AID 651725; in the data active = activity change below about -65%; inconclusive = about -30% to -65%; inactive = above about -30%; further: on the % scale 0 is the no-effect control and ±100 the full control effect
Target sequence (O00167 whole entry, looked up): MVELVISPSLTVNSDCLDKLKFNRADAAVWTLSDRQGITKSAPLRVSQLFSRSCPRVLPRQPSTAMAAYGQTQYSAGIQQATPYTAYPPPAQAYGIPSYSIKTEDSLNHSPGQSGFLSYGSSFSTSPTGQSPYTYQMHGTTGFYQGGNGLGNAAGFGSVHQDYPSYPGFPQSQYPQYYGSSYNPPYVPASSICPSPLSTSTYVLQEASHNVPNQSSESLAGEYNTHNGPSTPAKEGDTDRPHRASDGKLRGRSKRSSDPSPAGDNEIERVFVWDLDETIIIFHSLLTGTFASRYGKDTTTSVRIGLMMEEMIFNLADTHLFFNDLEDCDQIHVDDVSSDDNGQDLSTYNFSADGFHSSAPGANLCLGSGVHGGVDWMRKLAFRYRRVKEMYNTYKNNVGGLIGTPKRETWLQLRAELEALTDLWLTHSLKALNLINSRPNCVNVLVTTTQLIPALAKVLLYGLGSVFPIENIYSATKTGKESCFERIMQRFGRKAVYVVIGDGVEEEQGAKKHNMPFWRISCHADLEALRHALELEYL
Target sequence (Q15475 whole entry, looked up): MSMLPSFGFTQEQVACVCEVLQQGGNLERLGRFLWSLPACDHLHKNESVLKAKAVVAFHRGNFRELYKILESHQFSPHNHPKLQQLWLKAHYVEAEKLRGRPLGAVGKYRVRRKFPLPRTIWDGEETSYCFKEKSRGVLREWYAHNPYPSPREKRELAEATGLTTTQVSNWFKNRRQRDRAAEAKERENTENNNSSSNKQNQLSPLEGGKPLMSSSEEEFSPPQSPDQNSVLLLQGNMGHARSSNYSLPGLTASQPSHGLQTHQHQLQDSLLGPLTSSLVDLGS
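AlphaScreen luminescence read after one hour at 37 °C in darkness. Pin-transferred compounds met GST-Six1 and His-Eya2 protein (5X stock 250 nM/500 nM) plus glutathione donor and Ni-chelate acceptor beads (5X, 50 ug/mL).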
CtBP-E1A inh – blocks the CtBP interaction with E1A; 0.49% of 340,000 active; AID 651724; activity change, % (concentration not given with the values); AlphaScreen GST-E1A/His-CtBP binding, 1536-well; hits give low values; control for the full effect not named in the record; in the data active means activity change below about -65%; inconclusive means about -30% to -65%; inactive means above about -30%; further: on the % scale 0 is the no-effect control and ±100 the full control effect
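AlphaScreen with 125 nM GST-E1A and 125 nM His-CtBP (5X stocks) in Tris pH 8.0, 300 mM NaCl, BSA, Tween 20, TCEP. Compounds preincubated 2 h at 37 deg C, then glutathione donor/nickel acceptor beads added for 1 h at 37 deg C in dark.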
PINK1 expr mod – PINK1 expression modulation; PINK1 immunofluorescence, high-content cytometry, 24 h; Potency, µM (titrated, usually from 76.6 µM), without a hit: at the highest dose activation (PINK1 increase), usual class: activators; 0.2% of 410,000 active; AID 624263; active = well fitted activation curve with a large enough effect; inconclusive = small, poorly fitted or top-dose-only effect; inactive = flat fitted curve, though single readings scatter; cell line not stated here;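 further: potency means the concentration at half of the fitted maximal effect; % of control where 0% means no effect; nearly all actives have a fitted effect of over 65% in size; a mitochondrial uncoupler was the plate control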
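A stable cell line was treated with compounds at 5 concentrations for 24 hours, with CCCP as control. PINK1 levels and mitochondrial localization were measured by immunofluorescence with mitochondrial, cell and nuclear markers after fixation, read by laser-scanning cytometry.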
TRPML1 agonist – activates the human TRPML1 channel; activation, % (test concentration not listed); Q9GZU1; TRPML1-expressing cells, Ca2+ dye fluorescence, FDSS; host cell line not named in the record; reference of the full effect not given here; AID 624414; 0.12% of 410,000 active; in the data active = activation above about 50%; inconclusive = about 30% to 50%; inactive = below about 30%; further: 0% is about no effect; the text of the record puts the active cut at 80%
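Tet-induced TRPML1-DL cells, 1,500 per well, cultured overnight, were loaded with a no-wash Ca2+ dye for 45–90 min. Calcium fluorescence was recorded on the FDSS for 110 s after compound addition, before the EC80 agonist (4 uM 54-4) was added.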
Numbers without * were called inactive; ? = inconclusive; nt = not tested or not shown; & = joins results of further samples; [ ] = another dose, or the depositor's remark. Random draw from the library. About 1.3% of those tested had a hit in this group.

SMILES	D2 ag	D2 PAM	Six1-Eya2 blk	CtBP-E1A inh	PINK1 expr mod	TRPML1 agonist
O=C(NCc1ccco1)C1CCN(c2ccc(S(=O)(=O)N3CCOCC3)cc2[N+](=O)[O-])CC1	-2.3	-9	-5	0	3.4%	0.4
CC(=O)n1cc(Nc2ccccc2C(=O)O)c2ccccc21	-11	-41	0	2	-1.5%	0.9
OC(c1cc(-c2cccc(Cl)c2)nc2ccccc12)C1CCCCN1 (stereo not drawn)	-3.0	-3	-1	-26	-1.6%	0.5
CCCN=C1N/C(=C\c2ccco2)C(=O)N1c1ccccc1	-1.1	-10	5	12	-1.2%	0.4
O=C(c1ccc(F)cc1)N1CCOC(c2nc(-c3ccc(F)cc3)no2)C1 (stereo not drawn)	0.8	-3	-1	3	2.0%	0.2
O=C(CCNC(=O)Cn1cnc2ccccc2c1=O)NCC1COc2ccccc2O1 (stereo not drawn)	-2.3	-3	5	6	-0.1%	-1.2
Cc1ccc(CSc2nnc(-c3cccnc3)n2N)cc1	-0.8	-6	1	7	-5.9%[38.3 µM]	-0.4
Cc1cccc(NC(=O)c2c(O)c3ccccc3n(C)c2=O)c1	-4.9	-2	9	-4	5.5%	0.2
CCOC(=O)C1CCCN(C(=O)c2cc3c(=O)n4ccccc4nc3s2)C1 (stereo not drawn)	-5.5	-30	-1	-1	-1.2%	-0.5
CCCCC(=O)NC(=S)Nc1ccccc1N1CCCCC1	-4.8	-16	18	7	4.4%	0.8
Cc1ccc(OC(=O)c2c(C)nn(-c3ccccc3)c2C)cc1	-1.4	-8	14	14	5.4%	2.0
O=C(NCc1cccnc1)C1CCCN(S(=O)(=O)c2cccc3nsnc23)C1 (stereo not drawn)	-3.5	6	4	15	2.1%	1.8
c1ccc(-c2cc(N3CCOCC3)nc(-c3ccccc3)n2)cc1	-2.3	4	-6	-22	nt	-0.3
COc1ccc(OC)c(C(=O)COC(=O)C(CCSC)NC(=O)COc2ccccc2)c1 (stereo not drawn)	-0.7	-27	-10	-20	1.1%	5.6
COc1ccc(-c2cn[nH]c2-c2ccc(OCc3ccccc3)cc2O)cc1OC	-0.4	-5	-14	-11	-0.5%	3.6
COc1ccc2[nH]c(C(=O)N/N=C/c3ccc(OC)c(O)c3)cc2c1	0.8	5	14	-4	6.2%	0.7
O=C(NCCCCNC(=O)c1ccccn1)c1ccccn1	-2.5	-2	-9	nt	0.5%	0.6
CCOc1ccc(N(C(C)C(=O)N2CCCC2)S(C)(=O)=O)cc1 (stereo not drawn)	-0.8	-6	15	2	0.5%	0.1
CC(=O)Nc1ccc(NC(=O)c2ccc(-c3ccnn3C)c3ccoc23)cc1	6.8	-10	?	-15	0.0%	-1.0
CC(=O)c1ccccc1NS(=O)(=O)c1cccc2nsnc12	-4.7	-3	-16	-4	0.1%	2.4
CCN1CCN(C(=O)/C=C/c2cccc(Cl)c2)CC1	-3.4	-10	0	-4	-0.6%	-0.5
CNc1ccccc1C(=O)OCC(=O)Nc1ccc2c(c1)OCO2	1.2	6	4	12	1.1%	-0.5
COc1ccc(N(CC(=O)NC2CCCC2)C(=O)Cn2nnc(-c3ccc(C)cc3)n2)cc1OC	-2.1	-4	2	7	5.1%[38.3 µM]	-0.2
COCCn1c(-c2ccccc2)nc(=S)c2c1CC(C)(C)OC2	-1.9	29	3	9	-0.4%	-0.8
CC(=O)c1cc(CN2CCC(C(=O)Nc3ccc(-n4nc(C)cc4C)cc3)CC2)cs1	1.3	1	-5	6	4.3%	1.6
CC(=O)O[C@@H]1C[C@H](c2ccccc2)OC(=O)CCCCC1=O	nt	nt	-2	1	-0.1%	-0.2
Cc1nc2ccc(NC(=O)c3cnc(Cl)c(Cl)c3)cc2s1	2.4	-3	2	-15	9.2%	0.1
O=c1c(Cc2ccc(F)cc2)c(O)ccn1CCCn1ccnc1	-2.8	-9	2	nt	2.6%	0.8
COc1cc(NC(=O)c2cccs2)c(C(=O)OCC(=O)NC(C)c2ccccc2)cc1OC (stereo not drawn)	-3.3	-7	?	-25	1.4%	2.1
O=C1c2ccccc2C(=O)N1CC#CCN1CCN(C2CCCCC2)CC1	-0.9	-26	13	-2	-3.2%	1.4

Profiles, looked up by structure. Order of screens: D2 ag	D2 PAM	Six1-Eya2 blk	CtBP-E1A inh	PINK1 expr mod	TRPML1 agonist
Listed for CC(=O)c1cc(CN2CCC(C(=O)Nc3ccc(-n4nc(C)cc4C)cc3)CC2)cs1 : 1.3	1	-5	6	4.3%	1.6
Listed for COc1ccc2[nH]c(C(=O)N/N=C/c3ccc(OC)c(O)c3)cc2c1 : 0.8	5	14	-4	6.2%	0.7
Listed for O=C1c2ccccc2C(=O)N1CC#CCN1CCN(C2CCCCC2)CC1 : -0.9	-26	13	-2	-3.2%	1.4

Later entries
SMILES	D2 ag	D2 PAM	Six1-Eya2 blk	CtBP-E1A inh	PINK1 expr mod	TRPML1 agonist
CC1(c2ccc(Cl)cc2)NC(=O)N(CC(=O)Nc2cccnc2Cl)C1=O (stereo not drawn)	-2.5	-13	-4	7	0.9%	3.8
CCCC1CCc2c(sc(N)c2C(N)=O)C1 (stereo not drawn)	-0.5	12	-3	-1	-0.8%	-0.8
Cc1cc(C)cc(NC(=S)N2CCC(NC(=O)c3ccc(F)cc3)CC2)c1	-6.2	-6	2	11	9.5%	-1.4
O=C(NN=C1CCCCCC1)c1cc(-c2ccccc2)nc2ccccc12	-1.0	-2	3	-6	-1.8%	-0.7
O=C(COc1ccccc1)Nc1cc(Cl)ccc1Cl	-3.5	-19	17	nt	1.7%	nt
O=C(COC(=O)Cc1cccc(C(F)(F)F)c1)Nc1cccc2ccccc12	0.1	11	7	4	11%	2.1
Cc1ccc(-c2csc(NC(=O)C[n+]3cc(-c4ccc(C)cc4)n4c3CCC4)n2)cc1	0.5	-12	1	-10	-3.6%	-0.8
Cc1ccccc1C(=O)Nc1nnc(-c2ccncc2)o1	3.4	0	-15	-4	-0.2%	0.8
CCCCNc1ccc(C(CC(N)=O)NC(=O)c2cc(C)cc(C)c2)cc1[N+](=O)[O-] (stereo not drawn)	-4.1	-13	10	0	0.6%	-0.6
CCOc1cc(C=O)ccc1OCc1cc(=O)n2cc(C)ccc2n1	-4.7	-6	4	0	0.0%	0.6
Cc1ccc(NC(=O)CN(C)C(=O)c2cccc(S(=O)(=O)N3CCc4ccccc43)c2)cc1	-3.4	-35	-6	nt	3.6%	-1.3
O=C(Nc1nc2ccc3ccccc3c2s1)c1ccc(N2CCCCC2)c([N+](=O)[O-])c1	-3.5	-11	16	0	5.6%	0.1
C=C(C)C(=O)Oc1ccc(N2C(=O)[C@@H]3C4C=CC(C4)[C@@H]3C2=O)cc1	-2.5	-4	?	?	3.0%	-0.5
COc1ccccc1NC(=O)C(C)OC(=O)CCNS(=O)(=O)c1cccc(C(F)(F)F)c1 (stereo not drawn)	3.3	-3	-3	11	-1.0%	-0.5
O=C(c1c(Cl)nc2sccn12)N1CCCc2ccccc21	-1.2	-18	0	6	nt	0.2
Cc1cc(C)nc(SCNC(=O)c2ccc(F)cc2)n1	-1.8	-3	10	-1	-1.8%	0.5
COc1ccc(-c2cc3ccc(OCC(N)=O)cc3oc2=O)cc1OC	1.8	-1	3	nt	0.7%	0.8
COc1ccc(C2CC(c3ccc(OC)cc3)n3nc(NS(C)(=O)=O)nc3N2)cc1 (stereo not drawn)	-0.4	2	15	4	-0.1%	0.4
COc1cc2nc(CN3CCC(C(O)(c4ccccc4)c4ccccc4)CC3)[nH]c(=O)c2cc1OC	-5.5	-3	-10	4	19%	0.0
O=C(CCS(=O)(=O)c1ccc(F)cc1)Nc1nnc(-c2ccc(F)cc2)o1	-6.4	-12	-16	0	-0.1%	1.3
Cn1cc(CN2CCCC(C(=O)Nc3ccc(-c4cccc(F)c4)cc3)C2)cn1 (stereo not drawn)	-2.2	-19	0	nt	7.7%	3.3
CCCC(=O)Nc1cc(-c2nn(C)c(=O)c3ccccc23)ccc1OC	-2.0	-11	-1	-8	-1.4%[38.3 µM]	0.1
O=C(CCl)N(c1ccccc1)C1CCCCC1	-7.0	-11	-1	-3	-0.6%	-0.3
COc1ccc(-c2c3c(nc4sc(C(=O)Nc5cc(C)on5)c(N)c24)CCC3)cc1	-1.1	5	10	16	nt	0.3
O=C(CSc1cc(Cl)ccc1Cl)NC1CCCC1	-3.1	-6	10	5	2.2%	-0.3
COc1ccc(NC(=O)c2cccc(NC(=O)c3ccccc3)c2)cc1	-1.4	-5	7	-12	1.2%	-0.2
COc1cccc(C(=S)N2CCOCC2)c1OS(=O)(=O)c1ccc(Cl)cc1	-5.9	-3	-1	3	-0.6%	1.0
CC(=O)N1CCc2cc(S(=O)(=O)CCC(=O)NCCc3ccc(Cl)cc3)ccc21	-1.1	-7	4	nt	0.6%	0.7
CCOc1ccc(S(=O)(=O)Nc2ccccc2C(=O)N2CCOCC2)cc1	-1.2	-2	-6	8	0.8%	2.6
O=C1C=C(C#Cc2ccc(Oc3ccccc3)cc2)C[C@@H](c2ccc(F)cc2)C1	-8.2	-1	-1	4	?	0.4

Random excerpt: 2 compounds from above
SMILES	D2 ag	D2 PAM	Six1-Eya2 blk	CtBP-E1A inh	PINK1 expr mod	TRPML1 agonist
O=C(COC(=O)Cc1cccc(C(F)(F)F)c1)Nc1cccc2ccccc12	0.1	11	7	4	11%	2.1
O=C(NCCCCNC(=O)c1ccccn1)c1ccccn1	-2.5	-2	-9	nt	0.5%	0.6

Later entries
SMILES	D2 ag	D2 PAM	Six1-Eya2 blk	CtBP-E1A inh	PINK1 expr mod	TRPML1 agonist
COc1ccc(N2C(=O)[C@@H]3[C@H](C2=O)[C@H](C(C)=O)N2c4ccccc4C=C[C@@H]32)cc1	-1.2	-4	3	0	1.3%	-0.1
O=C(Nc1ccccc1)c1ccc(OC(=O)c2ccccc2)cc1	-5.7	-6	11	-4	0.6%	-0.4
CCO[C@H]1OC(C(=O)O)=C[C@@H](C2CCCCC2)[C@@H]1CCCO	-2.1	-8	7	11	2.2%	0.0
Clc1cccc(Cl)c1CO/N=C/c1c(-c2ccccc2)nc2n1CCS2	0.6	-32	-19	-17	nt	-0.2
CCOc1ncccc1C(=O)OCC(=O)Nc1ccc2c(c1)OCO2	-2.6	-5	3	2	1.9%	-0.1
CC(=O)c1cccc(NS(=O)(=O)c2ccc(N/C=C\C(=O)c3ccc(C)cc3)cc2)c1	4.3	64*	0	1	9.8%	-0.3
Cc1[nH]n(-c2ccc([N+](=O)[O-])cc2)c(=O)c1C=NCC1CCCO1 (stereo not drawn)	-6.3	0	3	6	2.5%	-0.7
COc1ccc(N2CCN(C(=O)Cn3cnc4c(cnn4-c4ccccc4)c3=O)CC2)cc1	-0.7	-7	4	4	3.5%	0.3
COc1cc(O)c(C(CCN2CCCCC2)c2ccc3c(c2)OCO3)c(OC)c1 (stereo not drawn)	-0.2	-22	?	-15	4.9%	0.4&0.6
CCCn1nc(NC(C)=O)c2cc3cccc(C)c3nc21	-3.5	-9	32	nt	-0.7%	2.1
Cc1[nH]c2ccccc2c1C(=O)C(=O)NC1CC1	4.1	6	3	11	-0.4%	0.4
Cc1nnc(SC(C)C(=O)Nc2ncc(Cl)cc2Cl)n1Cc1ccccc1 (stereo not drawn)	-4.4	-2	-10	3	0.5%	0.4
O=C1CCC([N+](=O)[O-])C(c2ccccc2Br)N1 (stereo not drawn)	6.0	-2	-7	nt	2.1%	-0.3
